StopGo reporter: High Throughput Screening for Foot and Mouth Disease Virus Antivirals; Potency, µM (doses to about 57.9 µM), for inactives: at the highest dose signal change, negative = less light; human cells with a luciferase reporter of 2A StopGo recoding; control for the full effect not named in the record; hit rate 1.2% among 410,000; active = well fitted falling curve with a large enough effect; inconclusive = small, poorly fitted or top-dose-only effect; inactive = no such curve, though single readings can be large or run the other way; tested in HEK293T cells; note: % is set by controls: 0 for no effect and ±100 for the full control effect; nearly all actives have a fitted effect of over 45% in size; luciferase light after 4 h
LASV entry inh: qHTS for Inhibitors of binding or entry into cells for Lassa Virus | Lassa virus pseudotype entry inhibition, cell reporter; control for the full effect not named in the record | Potency, µM (highest dose often 37.9 µM), for inactives: at the top dose activity change, negative = inhibition, usual class: inhibitors | hit rate 1.2% among 300,000; active means well fitted inhibition curve with a large enough effect; inconclusive means small, poorly fitted or top-dose-only effect, or effect the other way; inactive means flat fitted curve, though single readings scatter; tested in HEK293 cells; note: % is set by controls: 0 for no effect and ±100 for the full control effect; nearly all actives have a fitted effect of over 50% in size; luciferase read-out
SARS PLpro yeast: qHTS of Yeast-based Assay for SARS-CoV PLP. S. cerevisiae expressing SARS-CoV PLpro, growth rescue; control for the full effect not named in the record. Potency, µM (highest dose often 32.9 µM), for inactives: at the top dose activity, positive = growth rescue. hit rate 0.19% among 330,000. AID 485353, 2010; active means well fitted rising curve with a large enough effect; inconclusive means small, poorly fitted or top-dose-only effect; inactive means no such curve, though single readings can be large or run the other way; note: 0% is about no effect; nearly all actives have a fitted effect of over 55% in size; growth read by luminescence after 48 h
Cruzain inh Det: qHTS Assay for Promiscuous and Specific Inhibitors of Cruzain (with detergent); purified cruzain, Z-FR-AMC fluorescence, 0.01% Triton; Potency, µM, without a hit: max response, negative = inhibition, most hits filed as inhibitors; hit rate 0.43% among 200,000; AID 1478, 2009;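 note: plate controls were neutral wells for no effect and buffer without enzyme for full effect; nearly all actives have a fitted effect of over 40% in size; top concentration of the series not given in the record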
Target sequence (P25779 123-467 limits assumed): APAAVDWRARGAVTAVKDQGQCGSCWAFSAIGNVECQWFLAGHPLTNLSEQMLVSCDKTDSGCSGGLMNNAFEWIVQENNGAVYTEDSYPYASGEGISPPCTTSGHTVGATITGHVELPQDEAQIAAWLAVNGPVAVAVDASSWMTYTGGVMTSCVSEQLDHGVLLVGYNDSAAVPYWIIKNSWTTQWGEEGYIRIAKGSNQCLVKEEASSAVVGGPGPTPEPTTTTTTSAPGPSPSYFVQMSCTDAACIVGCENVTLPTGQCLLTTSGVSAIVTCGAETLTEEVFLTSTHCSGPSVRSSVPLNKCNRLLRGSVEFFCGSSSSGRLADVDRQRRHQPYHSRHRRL
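Detergent-containing run (0.01% Triton X-100) in acetate buffer pH 5.5 with 5 mM DTT: enzyme at 1.5 nM final, 15 min compound preincubation at room temperature, then 2 uM Z-FR-AMC substrate. Activity taken as 60 s fluorescence increase at 360/450 nm.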
MARV entry inh: qHTS for inhibitors of binding or entry into cells for Marburg Virus. hit rate 1.8% among 300,000. AID 540276, 2011. Marburg virus pseudotyped entry inhibition, cell reporter; control for the full effect not named in the record; about a third of the inactives were read at about 46 µM. Potency, µM (titrated, usually from 37.8 µM), for inactives: at the top dose activity change, negative = inhibition, hits mostly inhibitors; active = well fitted inhibition curve with a large enough effect; inconclusive = small, poorly fitted or top-dose-only effect, or effect the other way; inactive = flat fitted curve, though single readings scatter; tested in HEK293 cells; about a fifth of its hits are not listed in these tables; note: % is set by controls: 0 for no effect and ±100 for the full control effect; luciferase read-out
NS1 inh: qHTS Assay for Inhibitors of Influenza NS1 Protein Function | hit rate 0.4% among 270,000 | S. cerevisiae slowed by influenza A NS1, growth recovery by OD600 | AID 2326, 2010 | Potency, µM (top dose mostly 46.1 µM), for inactives: top-dose activity, positive = more growth; active means well fitted rising curve with a large enough effect; inconclusive means small, poorly fitted or top-dose-only effect; inactive means no such curve, though single readings can be large or run the other way; note: nearly all actives have a fitted effect of over 50% in size
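Recovery from NS1-induced slow growth read by OD600 in budding yeast switched to galactose assay medium (pH 6.0, -URA) at 1:100 dilution. Compound 23 nl per well; the matching strain lacking NS1 serves as control.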
RE007 growth inh: qHTS Assay for Inhibitors of the HIV-1 protein Vpr. S. pombe RE007 Vpr strain, BacTiter-Glo ATP luminescence, 24 h; control for the full effect not named in the record. Potency, µM (series often up to 92.2 µM), inactives show at the top dose activity change, negative = less growth. hit rate 0.21% among 360,000; active = well fitted falling curve with a large enough effect; inconclusive = small, poorly fitted or top-dose-only effect; inactive = no such curve, though single readings can be large or run the other way;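 note: % is set by controls: 0 for no effect and ±100 for the full control effect; nearly all actives have a fitted effect of over 50% in size; the assay follows cell death caused by Vpr and the record does not say whether a fall means rescue or toxicity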
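Fission yeast strain RE007, carrying one chromosomally integrated HIV-1 vpr copy, was seeded at OD 0.01 in PMG+AL medium with 23 nL pinned compound. After 24 h at 30 °C and 99% humidity, viability was read by BacTiter-Glo luminescence.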
Cruzain inh noDet: qHTS Assay for Promiscuous and Specific Inhibitors of Cruzain (without detergent) | purified cruzain, Z-FR-AMC fluorescence, no detergent | Potency, µM, for the others: max response, negative = inhibition, usual class: inhibitors | hit rate 2.3% among 200,000 | AID 1476, 2009;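 note: plate controls were enzyme without inhibitor for no effect and buffer without enzyme for full effect; nearly all actives have a fitted effect of over 40% in size; top concentration of the series not given in the record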
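Detergent-free condition (0.00005% Triton X-100) in acetate buffer pH 5.5 with DTT. 1.5 nM enzyme and compound were pre-mixed 15 min, then 2 uM Z-FR-AMC substrate added; reaction progress from fluorescence change between first and third reads (60 s).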
* = called active by the depositor; ? = inconclusive; · = not tested or not shown; & = joins results of further samples; [ ] = another dose, or the depositor's remark. Unless noted, calls come from the whole dose curve; as a rule, active = well fitted curve in the direction sought with a large enough effect; inconclusive = small, poorly fitted or top-dose-only effect, or another doubt; inactive = no such curve, though single readings can be large; an effect the other way counts as inactive or inconclusive. Potency is the fitted concentration of half-maximal effect.

SMILES	StopGo reporter	LASV entry inh	SARS PLpro yeast	Cruzain inh Det	MARV entry inh	NS1 inh	RE007 growth inh	Cruzain inh noDet
COc1ccccc1NC(=O)N1CC=C(c2c[nH]c3ccccc23)CC1	-2%	·	·	-8.7%	21%[46.1 µM]	·	·	-7%
COc1ccccc1-n1cc(CN2CCN(C3CCCCC3)C(CCO)C2)cn1 (stereo not drawn)	1%	·	0%	·	-8%[46.1 µM]	5%	-27%	·
COC(=O)c1ccccc1NC(=O)CN(Cc1ccc(Cl)cc1)S(C)(=O)=O	-18%	-13%	0%	-3.5%	?	7%	5%	22%
O=C(Nc1cccn2ncnc12)c1ccc(Cl)cc1Cl	3%	18%	3%	4.4%	2%	-7%	-11%	9%
O=C(OCC(=O)N1CCCC1)c1ccc(S(=O)(=O)N2CCOCC2)cc1	-2%	-1%[46.1 µM]	1%	·	2%[46.1 µM]	·	-8%	·
Cc1ccc2c(c1)c(=O)c(C(=O)c1ccncc1)cn2CC(=O)Nc1ccc(C(C)C)cc1	-22%	5%[46.1 µM]	·	-3.5%	·	·	·	-6%
O=C(CSc1nc2ccccc2s1)Nc1ccc(Cl)c(S(=O)(=O)N2CCOCC2)c1	-6%	?	-23%	-9.6%	?	19%	-2%	-28%
COc1ccc(N2CCN(C(=O)CC3NC4CCCCC4NC3=O)CC2)cc1 (stereo not drawn)	-22%	1%	-1%	4.8%	0%	3%	-4%	-5%
CCN1CCN(c2nc3c(c(=O)[nH]2)CCCC3)CC1	19%	9%	-2%	-1.4%	6%	?	0%	2%
CCOc1cc2c(cc1OCC)-n1cccc1C(c1cccc([N+](=O)[O-])c1)NC2 (stereo not drawn)	?	·	0%	·	·	2%	3%	·
CCC(c1nnnn1CCOC)N1CCN(C(=O)c2ccco2)CC1 (stereo not drawn)	-11%	2%	6%	3.2%	8%	4%	2%	-1%
CCOC(=O)C1=C(CNCc2ccc(Cl)cc2)NC(=O)NC1c1ccccc1 (stereo not drawn)	-16%	-22%[46.1 µM]	·	-3.4%	-27%[46.1 µM]	·	·	1%
COc1ccc(-c2nnc(SCCC(=O)O)n2-c2ccccc2)cc1	-2%	-17%	?	7.7%	1%	8%	13%	4%
COc1ccc(-c2noc(-c3ccccc3-c3ccccc3)n2)cc1OC	-17%	-23%	-7%	-1.0%	-8%	-6%	17%	24%
O=C(Nc1cccc(-n2cnnn2)c1)c1cc(Cl)nc(Cl)c1	-9%	·	2%	·	·	8%	5%	·
Cc1ccc(Cn2c(/C=C/c3ccco3)nc3ccccc32)cc1	2%	20%	-38%	-9.4%	?	-16%	14%	-13%
Cc1ccc(-n2[nH]c(C)c(/C=N/N3C(=O)c4cccc5cccc(c45)C3=O)c2=O)cc1	-21%	?	-2%	·	?	0%	?	·
C=CCN(CC=C)C(=O)Cn1cnc([N+](=O)[O-])n1	-9%	3%	-21%	-1.0%	?	5%	2%	-3%
COC(=O)C1=C(C)N=C2SCCC(=O)N2C1/C=C/c1ccccc1 (stereo not drawn)	-11%	0%	7%	-9.0%	-17%	-40%	9%	7%
Cc1ccc(S(=O)(=O)CCC(=O)OCC(=O)Nc2cc(F)ccc2C)cc1	5%	7%	-3%	·	4%	·	1%	·

Next part (2 carried over from the part before).
SMILES	StopGo reporter	LASV entry inh	SARS PLpro yeast	Cruzain inh Det	MARV entry inh	NS1 inh	RE007 growth inh	Cruzain inh noDet
COC(=O)C1=C(C)N=C2SCCC(=O)N2C1/C=C/c1ccccc1 (stereo not drawn)	-11%	0%	7%	-9.0%	-17%	-40%	9%	7%
Cc1ccc(S(=O)(=O)CCC(=O)OCC(=O)Nc2cc(F)ccc2C)cc1	5%	7%	-3%	·	4%	·	1%	·
Cc1cc(OCC(=O)NNC(=O)c2cccnc2)cc(C)c1Cl	14%	·	-1%	·	·	-8%	28%	·
COc1ccc(CCNC(=O)CN(C)S(=O)(=O)c2cccc3nsnc23)cc1OC	-28%	3%	3%	0.9%	11%&11%	-4%	4%	-4%
Cc1ccc(NC(=S)C2=C(O)c3sccc3N(C)S2(=O)=O)cc1	21%	-24%	-21%	-10%	-6%[46.1 µM]	-3%	-22%	-2%
NC(=O)CN1C(=O)NC(c2ccccc2)(c2ccccc2)C1=O	-2%	-1%[46.1 µM]	8%	·	-19%[46.1 µM]	12%	3%	·
CCCCn1c(N)c(N(CCOC)C(=O)COC(=O)c2cc(CC)c(C)s2)c(=O)[nH]c1=O	-20%	-21%	2%	·	2%	·	-16%	·
O=S(=O)(c1ccc(Br)cc1)N1CCC2(CC1)OCCO2	11%	4%	-4%	·	21%	6%	13%	·
CCC(=O)Nc1sc2c(c1C#N)CC(C)(C)NC2(C)C	17%	18%	3%	4.3%	19%	-25%	-5%	10%
CCOCCCn1c(=S)[nH]c2cc3c(cc2c1=O)OCO3	-5%	17%	-3%	5.1%	22%	-3%	21%	16%
COCCn1c(SCCN2CCCCC2)nc2ccccc2c1=O	1%	22%	0%	0.4%	-24%	-5%	-14%	5%
C=CCn1c(C#N)c(N)sc1=N	-8%	8%	1%	0.6%	18%	-6%	16%	-2%
COCCN(C(=O)C1=COCCO1)c1c(N)n(Cc2ccccc2)c(=O)[nH]c1=O	-14%	6%	-5%	·	5%	4%	-17%	·
Cc1ccc(S(=O)(=O)n2ccc3cccnc32)cc1	-3%	13%	3%	2.1%	14%	7%	-1%	-14%
COC(=O)CCCNC(=O)CN1CC(c2ccccc2)CC1=O (stereo not drawn)	-12%	16%	2%	4.7%	4%[46.1 µM]	?	20%	?
Cn1cc(C(=O)NCc2ccccc2F)cn1	8%	3%	21%	-0.2%	17%	?	0%	-14%
CCc1nccn1S(=O)(=O)c1ccc(Br)cc1Br	-5%	2%	-3%	-1.2%	17%	-7%	27%	2%
Cc1cc(Cl)ccc1Nc1ncnc2onc(C)c12	-22%	4%[46.1 µM]	·	-1.2%	·	·	·	-8%
CCOC(=O)c1cc2c(nc1N)CC(C)(CC)OC2 (stereo not drawn)	35%[activator]	?	4%	-1.3%	16%	-5%	5%	-1%
CCCOc1ccc(NC(=O)Cc2ccc(S(=O)(=O)N3CCOCC3)s2)cc1OCCC	15%	-11%	-9%	·	?	·	-1%	·
Cc1ccc2[nH]c(C(=O)O)c(NC(=O)CN3CCN(c4cccc(C)c4C)CC3)c2c1	-22%	?	-1%	-11%	?	-6%	-5%	19%
CCOc1ccccc1C(=O)NC1(C(F)(F)F)NC(=O)N(CCc2ccc(OC)c(OC)c2)C1=O (stereo not drawn)	-30%	?	·	-6.0%	?	·	·	?
CCN(CC)CCN(C(=O)c1ccc2ccccc2c1)c1nc2cc3c(cc2s1)OCO3	-14%	?	?	·	?	-53%	-11%	·
O=C1CCCN1CCCNS(=O)(=O)c1ccc(Cl)c(C(=O)N2CCOCC2)c1	-8%	3%	-3%	2.9%	13%	3%	-6%	-4%
NC(=O)Cc1nc(-c2ccc([N+](=O)[O-])cc2)cs1	-3%	1%[46.1 µM]	-5%	·	-1%[46.1 µM]	·	82%	·
CCOC(=O)[C@@H]1[C@H]2COc3cc(OC)ccc3[C@H]2N2C(=O)N(c3ccc(C(F)(F)F)cc3)C(=O)[C@@]12C	-8%	·	-4%	·	·	17%	19%	·
CCN(CC(=O)NCc1ccccc1Cl)CC(=O)Nc1c(F)cccc1F	-2%	·	0%	·	·	-6%	2%	·
COc1ccc(-c2cc(C(C)=O)c(C)n2CCC(=O)NCc2ccc(C)cc2)cc1	-1%	13%[46.1 µM]	·	-2.4%	·	·	·	-2%
Cc1ccccc1C(=O)NC1(C(F)(F)F)C(=O)Nc2c1c(=O)[nH]c(=O)n2-c1ccc(F)cc1 (stereo not drawn)	-3%	3%[46.1 µM]	·	1.1%	-2%[46.1 µM]	·	·	1%
CCc1ccc(N(CC(=O)O)S(=O)(=O)c2c(C)noc2C)cc1	-8%	·	-2%	-2.5%	1%	-2%	-1%	-2%
CCO[C@@H]1OC(C(=O)NCc2ccccc2)=C[C@H](c2csc3ccccc23)[C@H]1CCCO	72%[activator]	·	0%	·	·	4%	1%	·
Cc1nc2c(-c3ccc(F)cc3)c(C)nn2c(C)c1CCC(=O)N1CCN(c2ccc(F)cc2)CC1	-8%&0%	0%[46.1 µM]	7%	-4.5%&-5.7%	1%[46.1 µM]	16%	0%	?
CCc1ccccc1NC(=O)Nc1nnc(N(C)Cc2ccccc2)s1	-11%	12%[46.1 µM]	·	-6.6%	8%[46.1 µM]	·	·	-8%
CC(=O)C1=C(C)NC(=O)NC1c1ccc2c(c1)OCO2 (stereo not drawn)	-9%	?	3%	·	2%[46.1 µM]	3%	-3%	·
COc1ccccc1NC(=O)c1cc(=O)c2ccc(C)c(C)c2o1	-4%	23%[46.1 µM]	·	-0.2%	?	·	·	-9%
COc1ccccc1C(=O)NC(=O)COC(=O)c1cccc(NC(C)=O)c1	25%	-5%	0%	·	-5%	-13%	-18%	·
O=C1NC[C@H](Cc2ccc(O)cc2)N(CCc2cccc3ccccc23)C1=O	-8%	·	4%	·	·	-5%	-1%	·
O=S(=O)(c1ccc(Cl)cc1)N1CCN(Cc2cccnc2)CC1	-14%	24%[46.1 µM]	-2%	·	-2%[46.1 µM]	2%	-9%	·
Cn1c([N+](=O)[O-])cnc1COC(N)=O	-12%&-10%	-2%	0%	-1.3%&-4.0%&-5.4%	30%	3%	9%[18.4 µM]	6%&-3%&-8%
Cc1nccn1CC(=O)N/N=C/c1ccc(O)c(O)c1	·	·	-2%	-6.5%	·	3%	·	-6%
CCc1ccc2nc(N(CCCN(C)C)C(=O)c3ccc(S(=O)(=O)N4CCCC4)cc3)sc2c1	-7%	·	-1%	·	·	-2%	2%	·
COc1ccc(N2CCN(C(=O)CSCc3nc(-c4ccccc4Cl)oc3C)CC2)cc1	?	?	·	-2.7%	5%[46.1 µM]	·	·	?
